KCNQ2 inh: KCNQ2 potassium channel inhibitors, primary screen, cell-based, CHO-K1, FluxOR thallium flux, B-score (AID 2156); O88943; 20 min; stronger effect = lower value; only compounds with negative scores are shown here; some inactives read as strong as hits; B-score at 10 µM; 310,000 tested, 1.1% active;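 active = fluorescence ratio B-score at most minus 3 library SDs, with starting brightness B-score within 2 library SDs, cut at about -5.5 in these data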
Target sequence (O88943 whole entry, looked up): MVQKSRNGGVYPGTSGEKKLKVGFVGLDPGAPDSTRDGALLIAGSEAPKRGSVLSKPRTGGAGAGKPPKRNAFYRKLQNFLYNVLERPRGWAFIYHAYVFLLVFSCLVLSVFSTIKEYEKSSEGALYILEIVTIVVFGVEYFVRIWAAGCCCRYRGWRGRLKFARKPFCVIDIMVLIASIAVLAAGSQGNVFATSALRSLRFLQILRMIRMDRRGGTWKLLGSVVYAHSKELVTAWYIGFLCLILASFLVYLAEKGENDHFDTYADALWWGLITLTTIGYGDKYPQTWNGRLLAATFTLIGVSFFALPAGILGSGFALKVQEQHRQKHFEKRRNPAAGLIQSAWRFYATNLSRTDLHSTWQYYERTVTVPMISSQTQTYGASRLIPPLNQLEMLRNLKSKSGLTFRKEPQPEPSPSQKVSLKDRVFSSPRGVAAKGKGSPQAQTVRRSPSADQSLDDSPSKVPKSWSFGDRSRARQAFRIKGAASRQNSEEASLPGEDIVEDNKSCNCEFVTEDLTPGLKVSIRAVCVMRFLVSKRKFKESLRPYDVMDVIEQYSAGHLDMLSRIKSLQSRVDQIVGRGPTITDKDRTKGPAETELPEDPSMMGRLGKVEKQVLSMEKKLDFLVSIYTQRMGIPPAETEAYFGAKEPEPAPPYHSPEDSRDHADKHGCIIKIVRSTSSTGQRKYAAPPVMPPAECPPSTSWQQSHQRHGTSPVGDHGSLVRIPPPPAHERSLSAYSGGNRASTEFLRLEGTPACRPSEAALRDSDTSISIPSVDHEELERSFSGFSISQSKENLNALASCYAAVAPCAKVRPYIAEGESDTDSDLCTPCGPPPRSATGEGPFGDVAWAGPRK
KCNQ2 inh baseline: recorded beside KCNQ2 inh, whose call it bears; B-score; measured here: initial fluorescence intensity artifact check;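 brightness before thallium and not channel activity; 0 = typical well and far values either way flag optical interference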
Numbers without * were called inactive; i = inactive. Only part of the results is shown, so the mix of outcomes need not match the whole.

Start of the data: the first two records, ahead of the listing:
SMILES | KCNQ2 inh | KCNQ2 inh baseline
O=C(NC1CCN(Cc2ccccc2)CC1)c1ccc(CS(=O)c2ccc(F)cc2)o1 (configuration not stated) | i | 1.1
O=C(Nc1cccc2cccnc12)c1cc(F)c(F)cc1Cl | i | -2.1

This part in full, from the first entry:
SMILES | KCNQ2 inh | KCNQ2 inh baseline
O=C(NC1CCN(Cc2ccccc2)CC1)c1ccc(CS(=O)c2ccc(F)cc2)o1 (configuration not stated) | i | 1.1
O=C(Nc1cccc2cccnc12)c1cc(F)c(F)cc1Cl | i | -2.1
Cc1c(-c2ccccc2)oc2c(C(=O)N3CCN(c4ccc([N+](=O)[O-])cc4)CC3)cccc2c1=O | i | 0.94
Cc1ccc(NS(=O)(=O)c2ccc(C(C)(C)C)cc2)cn1 | i | 1.8
Cc1ccc(CN(C(=O)c2ccco2)C2CCS(=O)(=O)C2)cc1 (configuration not stated) | i | 2.2
Cc1cccc(C)c1NC(=S)N(CCN(C)C)Cc1cccs1 | i | -0.35
O=C(CSc1ccc(F)cc1)NC1CCCCC1 | i | 0.49
COc1ccc(-c2n[nH]c(=S)n2CC(C)C)cc1 | i | -2
COc1ccc(C(=O)CC(=O)C(=O)Nc2ccc(OC)c(Cl)c2)cc1 | i | 6.7
CCOC(=O)c1sc2ccccc2c1OC(=O)c1ccc(C)cc1 | i | -0.22
O=C(c1ccccc1)c1ccc(Sc2ccc([N+](=O)[O-])cc2)cc1 | i | 0.35
CC(OC(=O)c1ccccc1NCCO)C(=O)Nc1ccc(S(=O)(=O)N2CCOCC2)cc1 (configuration not stated) | i | 0.03
COc1ccc(N(CC(=O)N2CCc3ccccc3C2)S(=O)(=O)c2c(C)[nH]c(=O)[nH]c2=O)cc1 | i | -0.23
CC(C(=O)Nc1cc([N+](=O)[O-])ccc1Cl)N1CCN(c2ccccc2O)CC1 (configuration not stated) | i | -0.67
COc1ccc(-c2cc3ccc(OCC(=O)NCC4CCC(C(=O)O)CC4)cc3oc2=O)cc1 (configuration not stated) | i | -1.1
CN(CCOc1ccc(Br)cc1)C(=O)CNC(=O)c1ccc2ccccc2c1 | -6.5* | 1.3*
O=C(CN(C(=O)CNS(=O)(=O)c1ccccc1)C1CCCC1)NCC1CCCO1 (configuration not stated) | i | 0.83
CCc1cc(=O)oc2c(C)c(OCC(=O)NCc3ccccn3)ccc12 | i | 0.2
c1csc(CNc2nc3ccccc3n2CCN2CCOCC2)c1 | i | 0.86
COc1ccc(CNC(=O)CCc2cc(OC)c(OC)c(OC)c2)cc1 | i | -1.4

Another view of two compounds above:
KCNQ2 inh | KCNQ2 inh baseline | mol
i | 2.2 | Cc1ccc(CN(C(=O)c2ccco2)C2CCS(=O)(=O)C2)cc1 (configuration not stated)
i | -0.35 | Cc1cccc(C)c1NC(=S)N(CCN(C)C)Cc1cccs1

Six consecutive records out of the list so far:
SMILES | KCNQ2 inh | KCNQ2 inh baseline
CC(C(=O)Nc1cc([N+](=O)[O-])ccc1Cl)N1CCN(c2ccccc2O)CC1 (configuration not stated) | i | -0.67
COc1ccc(-c2cc3ccc(OCC(=O)NCC4CCC(C(=O)O)CC4)cc3oc2=O)cc1 (configuration not stated) | i | -1.1
CN(CCOc1ccc(Br)cc1)C(=O)CNC(=O)c1ccc2ccccc2c1 | -6.5* | 1.3*
O=C(CN(C(=O)CNS(=O)(=O)c1ccccc1)C1CCCC1)NCC1CCCO1 (configuration not stated) | i | 0.83
CCc1cc(=O)oc2c(C)c(OCC(=O)NCc3ccccn3)ccc12 | i | 0.2
c1csc(CNc2nc3ccccc3n2CCN2CCOCC2)c1 | i | 0.86

Carrying on.
SMILES | KCNQ2 inh | KCNQ2 inh baseline
O=[N+]([O-])c1ccc(N=NN(CCO)CCO)cc1 | i | 0.02
CC(=O)NC(Cc1ccc(F)cc1)C(=O)NC1CCN(c2ncccc2[N+](=O)[O-])CC1 (configuration not stated) | i | 1
O=[N+]([O-])c1ccc(N2CCN(S(=O)(=O)c3ccc(Cl)c(Cl)c3)CC2)cc1NCCN1CCOCC1 | i | -0.29
Cc1cccc2c(=O)c(C(=O)NCc3cccs3)c[nH]c12 | i | 0.08
C/C(=N\NC(=O)Cc1ccccc1)c1cccnc1 | i | 0.4
O=C1c2[nH]nc(-c3ccccc3O)c2C(c2ccc(F)cc2)N1CC1CCCO1 (configuration not stated) | i | 0.12
NC(=O)c1ccccc1NC(=O)/C=C/C(=O)O | i | -0.01
C=CCNC(=S)N1CCN(c2cccc(C(F)(F)F)c2)CC1 | i | -0.22
O=C(Cc1ccc(S(=O)(=O)N2CCCCC2)s1)Nc1cccc2ccccc12 | i | 1.7
O=C(CCn1c(=O)c2ccccc2n(CC(=O)NC2CCCC2)c1=O)NCCc1ccc(Cl)cc1 | i | -0.43
O=C(c1ccc(C(=O)N2CCCc3ccccc32)s1)N1CCCc2ccccc21 | i | 0.11
CCc1[nH]nc(C(=O)N2CCCC(CO)(Cc3ccc(F)cc3F)C2)c1C (configuration not stated) | i | 0.1
Cc1ccccc1-c1ccc(C(=O)NCc2ccccc2)o1 | i | 0.04
OCCOCCNc1ncnc2nc[nH]c12 | i | 0.87
COc1ccc(/C=C2\CCCCC2=O)cc1 | i | -2.2
COC(=O)c1cc(S(=O)(=O)NC2CCCCC2)cn1C | i | 1.5
CCC(=O)N1CCN(c2ccc(NC(=O)COc3ccccc3[N+](=O)[O-])cc2)CC1 | i | -0.82
O=S(=O)(c1ccc(OC(F)(F)F)cc1)N1CCCC(c2ccccc2)C1 (configuration not stated) | -5.7* | -0.1*
O=C1c2ccccc2S(=O)(=O)N1Cc1cc(=O)n2ccsc2n1 | i | 1.8
CN(C)Cc1c(C(=O)N/N=C/c2ccco2)nnn1-c1nonc1N | i | -0.65
COc1ccc(Br)cc1-c1noc(-c2ccccc2F)n1 | i | -0.28
O=C(O)CCC(=O)Nc1ccc(SSc2ccc(NC(=O)CCC(=O)O)cc2)cc1 | i | -1.3
CC(C)Cc1nc2sc3c(SCC(N)=O)ncnc3c2c2c1CCC2 | i | -1.5
CNC(=O)c1sc(-c2ccc(Cl)cc2)nc1C | i | -0.1
CCOc1ccc(N(CC(=O)Nc2ccc(C)c(C)c2)S(=O)(=O)c2c(C)[nH]c(=O)[nH]c2=O)cc1 | i | -1.1
O=[N+]([O-])c1ccc(C2=Nc3cc(Cl)ccc3OC2)cc1 | i | -0.97
O=c1cc(O)c2sc3nc(C(F)(F)F)c4c(c3c2[nH]1)CCCCC4 | i | 1.4
Cc1ccc(NC(=O)C(=O)NC(C)C2COc3ccccc3O2)cc1 (configuration not stated) | i | -0.68
CCOc1ccccc1NC1c2ccccc2C(=O)N1c1ccc(C)cn1 (configuration not stated) | i | -0.7
Cn1ncc(Cl)c1C(=O)NCc1ccc2c(c1)OCO2 | i | -0.53
Cc1ccc(-c2c[n+](CC(=O)Nc3ccc(C)cc3C)c3n2CCC3)cc1 | i | 2.2
CC(=O)N1N=C(c2cccc([N+](=O)[O-])c2)OC1(C)CC(=O)Nc1ccccc1 (configuration not stated) | i | -0.03
N#CCCN(C(=O)COC(=O)c1ccc(S(=O)(=O)Nc2ccccc2)cc1)c1ccccc1 | i | 0.17
O=C1Nc2c(Br)cc(Br)cc2C1(O)N1CCOCC1 (configuration not stated) | i | 2.4
O=C(OC(C(=O)NC1CCCCC1)c1ccccc1)c1ccco1 (configuration not stated) | i | -0.8
CCOc1cc(N)c(Cl)cc1C(=O)NCC1CN(Cc2ccc(F)cc2)CCO1 (configuration not stated) | i | 0.03
Cn1c(=O)c2nc(Cl)c(-c3ccccc3)nc2n(C)c1=O | i | -2
CC1CC(C)CN(S(=O)(=O)c2ccc(F)c(C(=O)Nc3ccc(Cl)cc3F)c2)C1 (configuration not stated) | i | -0.23
Cc1ccccc1-c1nc2ccccc2o1 | i | -1.5
CCOc1ccc(CSCCNC(=S)Nc2ccccc2)cc1 | i | 0.54
CCN(c1ccccc1)S(=O)(=O)c1ccc2c(c1)C(C)(C)C(=O)N2C | i | -0.51
Cc1ccc2c(c1)N(CC(=O)N(Cc1ccc3c(c1)OCO3)CC1CCCO1)C(=O)C(C)O2 (configuration not stated) | i | -1.7
CCOc1ccc(N2C(=O)CC(N3CCc4ccccc43)C2=O)cc1 (configuration not stated) | i | 3.2
CN(C)Cc1ccccc1Cc1ccccc1 | i | -0.67
COc1ccc(C(=O)NNC(=O)C2=NN(c3ccccc3)C(=O)CC2)cc1 | i | -1.7
C[C@@H]1O[C@@H](O[C@H]2[C@H](Oc3cc(O)c4c(c3)O[C@H](c3ccc(O)cc3)CC4=O)O[C@H](CO)[C@@H](O)[C@@H]2O)[C@H](O)[C@H](O)[C@H]1O | i | -1.4
COc1ccc(Cl)cc1NC(=O)C/C(C)=N/NC(=O)CCc1ccccc1 | i | 0.04
Nn1cc(-c2ccccc2)nc1SCC(=O)NCCN1C(=O)CSC1=O | i | -0.46
CCCN1CC(=O)N2Cc3[nH]c4ccccc4c3C[C@H]2C1=O | i | -0.03
O=C1C(Cc2ccccc2)SC(=Nc2ccccc2)N1c1ccccc1 (configuration not stated) | i | -0.15
Cc1nc2sccn2c(=O)c1S(=O)(=O)NC(C)c1ccccc1 (configuration not stated) | i | 0.33
CN(CC(=O)Nc1ccc(F)cc1)C(=O)COC(=O)c1cc(S(=O)(=O)N(C)C)ccc1N1CCCC1 | i | 0.73
COC(=O)c1nn(-c2ccc(OC)cc2)c(=O)cc1Sc1ccc(C)cc1 | i | -0.69
COc1ccc(OC)c(NC(=O)CSc2nnc(Cc3cccn3C)n2CCc2ccccc2)c1 | i | -0.45
CCC(C)NC(=O)CCn1c(-c2ccc(F)cc2)cc(C(C)=O)c1C (configuration not stated) | i | -0.78
O=C(Nc1cccc(S(=O)(=O)N2CCOCC2)c1)c1ccc(N2CCOCC2)c([N+](=O)[O-])c1 | i | -1.1
O=C(Oc1ccc(C(=S)N2CCOCC2)cc1)c1ccccc1[N+](=O)[O-] | i | -0.02
NC(=O)CSc1ncnc2c1cnn2Cc1ccccc1 | i | 3.6
CC(C)NC(=O)C1CCN(Cc2cnn(-c3ccccc3)c2-n2cccc2)CC1 | i | 1.3
CCOC(=O)C(C)Oc1ccc(NC(=O)C(Cl)Cl)cc1 (configuration not stated) | i | -0.36

A few values from the entries so far:
KCNQ2 inh baseline with CC(C)NC(=O)C1CCN(Cc2cnn(-c3ccccc3)c2-n2cccc2)CC1 stands at 1.3
KCNQ2 inh baseline with CCCN1CC(=O)N2Cc3[nH]c4ccccc4c3C[C@H]2C1=O stands at -0.03
KCNQ2 inh baseline with NC(=O)CSc1ncnc2c1cnn2Cc1ccccc1 stands at 3.6
KCNQ2 inh baseline with COc1ccc(C(=O)NNC(=O)C2=NN(c3ccccc3)C(=O)CC2)cc1 stands at -1.7
KCNQ2 inh baseline with Nn1cc(-c2ccccc2)nc1SCC(=O)NCCN1C(=O)CSC1=O stands at -0.46

Going on with the list.
SMILES | KCNQ2 inh | KCNQ2 inh baseline
COc1ccc(OC)c(/C=C/C(=O)NC2=NCCS2)c1 | i | -1
N#Cc1c(Cl)nc(N/N=C/c2ccccc2)c(Cl)c1Cl | i | 0.76
CCCC(=O)Nc1ccc2c(c1)nc1n2CCN(C2CCCCC2)C1 | i | -0.67
COc1ccc(N2CC(C(=O)OCC(=O)NCc3ccccc3)CC2=O)cc1 (configuration not stated) | i | -0.52
O=C(c1ccc(-n2c(SCc3cccc(F)c3)nc3ccccc3c2=O)cc1)N1CCOCC1 | i | -0.02
O=C(CSc1n[nH]c(-c2cccs2)n1)NCc1cccs1 | i | 2.4
O=C1CCC(C(=O)OCC(=O)N2N=C3/C(=C/c4ccccc4)CCCC3C2c2ccccc2)N1 (configuration not stated) | i | -1.5
CC(C)N(C(=O)Cn1cc(S(=O)(=O)CC(=O)NCc2ccccc2)c2ccccc21)C(C)C | i | -1.4
O=C(NCCCN1CCOCC1)C(=O)N/N=C/c1ccc(F)cc1 | i | -1.2
COc1ccc(N2CCN(C(=O)COC(=O)COc3cc(C)cc(C)c3)CC2)cc1 | i | 1.3
COc1cccc(-n2nnc3c(=O)n(Cc4cccc(C)c4)cnc32)c1 | i | 0.03
O=C(CCC1CCCN(C(=O)c2ccoc2)C1)NCc1ccc(F)c(F)c1 (configuration not stated) | i | 0.44
COc1ccc(NC(=O)CSc2ccccc2)cc1S(=O)(=O)N1CCCCC1 | i | 0.07
Cc1cccc(NS(=O)(=O)c2ccc(C)c(C(=O)NCc3ccncc3)c2)c1 | i | 0.52
CCCOC(=O)c1ccc(NC(=O)c2ccoc2C)cc1 | i | 0.13
CCOc1cc(C)cc2oc(=O)cc(-c3ccccc3)c12 | i | -0.4
Cc1nc(Cl)sc1C(=O)NC(C)c1ccc(Cl)cc1 (configuration not stated) | i | -0.81
CSc1ccc(CN(C)CCc2ccccn2)cc1 | i | -1.7
CCC(C)(C)n1nnnc1C(c1cccnc1)N1CCC(Cc2ccccc2)CC1 (configuration not stated) | i | 1.4
CCOC(=O)c1ccc2c(c1)[n+](CC)c(C)n2-c1ccccc1 | i | 1.9
COc1ccc(Br)cc1-c1noc(-c2ccccc2)n1 | i | -0.03
CN1CCN(c2ccc([N+](=O)[O-])cc2C(=O)N2CCCCC2)CC1 | i | 0.69
Cc1ccc(S(=O)(=O)N2CCCOC2CNC(=O)C(=O)NCCC2=CCCCC2)cc1 (configuration not stated) | i | -0.01
COc1ccccc1CCN=C(N)NS(=O)(=O)c1ccccc1 | i | 0.11
CC(C)c1cc(C(F)(F)F)n2nc(C(=O)Nc3ccc4c(c3)OCO4)cc2n1 | i | -1.7
O=C(c1ccc2c(Cl)c3c(nc2c1)CCCC3)N1CCN(c2ccc(F)cc2)CC1 | i | 0.72
COc1ccc(CCNc2cc(=O)[nH]c(N)n2)cc1 | i | 0.86
CC1CN(S(=O)(=O)c2cccc(C(=O)OC(C)C(=O)NC3CCCCC3C)c2)CC(C)O1 (configuration not stated) | i | -0.07
O=C(Nc1ccc2oc(=O)ccc2c1)c1ccc(-c2ccccc2[N+](=O)[O-])o1 | i | 2.1
CC(CN1CCC(n2nccc2NC(=O)CCCc2ccccc2)CC1)c1ccccc1 (configuration not stated) | i | 1.6
